BJeLR viability: MLPCN primary cell-based screen for lethality selective to Ras in HRASV12 cells. BJeLR (HRASV12) viability, CellTiter-Glo ATP luminescence, 48 h; reference of the scale not given here. inhibition, % (no concentration beside the values). 300,000 tested, 0.17% active. AID 1554, 2009;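 active means replicate mean above 50%; inconclusive means above 50% but judged a plate artefact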;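 further: 50 nL library stock added to about 25 µL; numbers are from one replicate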
RN4220 kill: growth inhibition of S. aureus RN4220, primary screen, OD600; AID 1259311, 2017; 16 h; inhibition, % (no concentration beside the values); 330,000 tested, 0.33% active;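 active means z-score of -3 or lower and OD600 up to 0.18 on both plates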;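 further: plate controls were untreated cells for no effect and reference antibiotic for full effect; stock transfer was 100 nL into about 80 µL; one replicate is shown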
ugtP null kill: growth inhibition of ugtP-null S. aureus, primary screen, RN4220 ugtP deletion, OD600 | 16 h; some inactives read as strong as hits | growth inhibition, % (no concentration beside the values) | 330,000 tested, 0.54% active | AID 1259309, 2017;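 active means z-score under -3 and OD600 up to 0.15 on both plates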;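 further: plate controls were untreated wells for no effect and antibiotic for full effect; wells of about 80 µL received 100 nL stock; the first replicate is given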
Mtb hypoxia inh: PubChem AID 1159583. M. tuberculosis hypoxia-regulated fluorescent reporter, fluorescence. fluorescence inhibition, % (concentration not given with the values). 300,000 tested, 0.1% active;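 active means 35 to 45% if threefold the growth effect, above 45% if 1.5-fold the growth effect; inactive means the rest, general growth blockers included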;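 further: wells of about 50 µL received 100 nL stock; 0% = vehicle wells and 100% = reference inhibitor wells; whole bacteria with a GFP reporter of the hypoxia response; strong numbers were not always called active; many hits fall short of the cut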
Bead autofluor: counter-screen for toxin protease inhibitors: compound fluorescence; fluorescence intensity (no concentration beside the values); AID 624483; compound autofluorescence counterscreen, microsphere flow cytometry; active compounds read high; 360,000 tested, 3.1% active;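 active means at least 3 SD above the mean of all compounds, about 16000 in these data; inconclusive means too few beads counted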;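 further: 100 nL of 1 mM stock went into each well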
PrP UTR inh: inhibition of PrP 5' UTR reporter expression; 340,000 tested, 0.35% active; cell-based PrP 5' UTR mRNA reporter, plate reader; inhibition, % (test concentration not listed); AID 488862, 2010;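 active means every replicate at 50% or more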;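 further: 0 = median of the neutral control wells; tested in H4 reporter cells; numbers are from one replicate; inactives centre near -14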
Mtb hypoxia inh growth: recorded beside Mtb hypoxia inh, whose call it bears; growth inhibition, %; measured here: M. tuberculosis growth (absorbance);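 0% = vehicle and 100% = reference antibiotic; read after six days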
* hit, by the source's call; ? = inconclusive; · = not tested or not shown.

SMILES | BJeLR viability | RN4220 kill | ugtP null kill | Mtb hypoxia inh | Mtb hypoxia inh growth | Bead autofluor | PrP UTR inh
COc1cc(C=NNC(=O)c2ccccc2NS(=O)(=O)c2cccs2)ccc1O | · | 8.6 | 12 | 22 | 9 | · | ·
CNC(=S)NNC(=O)c1ccc2c(c1)OCO2 | 2 | 2.6 | 2 | 10 | 8 | 7436 | -14
Nn1c(SCC(=O)NC2CCCCC2)nnc1C1CC1 | -4 | 3.3 | 8 | 7 | -5 | 6567 | -19
COc1ccc2c(c1)CCCN2C(N)=Nc1ccc(Cl)cc1 | 1 | · | · | · | · | 3397 | -7
O=C1SC(c2ccccc2)=C/C1=C\N1CCCCC1 | 2 | 7.1 | -5 | 1 | 8 | 8471 | -15
COc1ccc(NC(=O)Nc2cc(NC(=O)Nc3ccc(OC)cc3)c(C)nc2C)cc1 | -3 | 0.8 | -3 | -4 | 9 | 2295 | -19
COC/C=C/C1=CC2=CC(=O)C(C)(OC(=O)c3cnc4ccccc4n3)C(=O)C2=CN1Cc1ccc(OC)cc1 (stereo unspecified) | 10 | · | · | · | · | 3355 | -14
COc1ccc(OC)c(/C=N/NC(=O)Cc2nc3ccccc3[nH]2)c1 | 3 | · | · | · | · | 2003 | -17
O=C(CN1C(=O)NC2(CCCCCC2)C1=O)N1CCN(S(=O)(=O)c2ccc(Cl)cc2)CC1 | -1 | -6.2 | -5 | 2 | 8 | 12145 | ·
Cc1ccc(-n2nc(CN3CCOCC3)c(-c3ccccc3)c2N)c(C)c1 | 8 | 2.6 | 8 | 10 | -3 | 1947 | -9
COc1ccccc1NC(=O)CNC(=O)Cn1c(C)cc2ccccc2c1=O | 5 | -3.6 | -2 | -2 | -2 | 3201 | 8
COc1ccc(CNC(=S)N2CCN(Cc3ccccc3)CC2)cc1 | 16 | -0.9 | 8 | 2 | -6 | 4104 | -14
COc1ccc(OC)c(NC(=O)Cn2cnc3c(cnn3-c3ccccc3)c2=O)c1 | -9 | 0.2 | 13 | 4 | 2 | 5946 | -10
CSc1nnc(-c2ccc(S(=O)(=O)N3CCOCC3)cc2)n1C | -10 | -1.5 | 3 | -3 | 8 | 3730 | -7
O=C(COc1ccc(F)c(Cl)c1)N1CCCCCCC1 | 9 | -0.9 | -4 | 18 | 32 | 3868 | -4
COc1ccccc1C(O)P(=O)(OC(C)C)c1ccc(N(C)C)cc1 (stereo unspecified) | -3 | 6.3 | 7 | 3 | 10 | 15735 | -2
N=P(N1CCOCC1)(N1CCOCC1)C12CC3CC(CC(C3)C1)C2 | 3 | -13 | -5 | 15 | 11 | 2917 | -5
CCOC(=O)c1cc(NC(=O)CC(C)(C)CC(=O)O)ccc1N1CCCCC1 | 0 | 3.1 | -2 | -9 | 3 | 4480 | -15
OC(CN1CCN(Cc2ccccc2)CC1)c1ccc(Br)cc1 (stereo unspecified) | -13 | 0.9 | 1 | -4 | -5 | 4647 | -3
S=C(Nc1ccc(Cl)cc1)NN1CCOCC1 | 0 | 2.7 | 8 | 12 | 5 | 2417 | -12

SMILES | BJeLR viability | RN4220 kill | ugtP null kill | Mtb hypoxia inh | Mtb hypoxia inh growth | Bead autofluor | PrP UTR inh
Cc1cc(NN=Cc2ccc(Br)cc2)nc(-n2nc(C)cc2C)n1 | · | 6.3 | -25 | 0 | 5 | · | ·
Cc1cc(Br)ccc1SCC(=O)OCC(=O)NC1CC1 | 0 | 5.3 | 11 | -2 | -7 | 2658 | -14
CCOC(=O)C(CCC(=O)O)(CCC(C)C)c1csc(N)n1 (stereo unspecified) | -9 | 3.1 | 2 | 17 | 3 | 8980 | -22
C=CCOC(=O)CCCC(=O)NC1CCCCC1 | 4 | -3.0 | -4 | · | · | 2622 | -2
Cc1cc(C)cc(N(CCC(=O)O)S(=O)(=O)c2ccc3ccccc3c2)c1 | -1 | 2.6 | 0 | -2 | 7 | 1995 | -15
O=C(NCc1ccco1)C(=O)NCC1OCCN1C(=O)c1ccc(Cl)cc1 (stereo unspecified) | 1 | 3.4 | 10 | 1 | -3 | 3566 | -55
O=C(O)c1nn(-c2ccccc2)c(-c2ccccc2)c1C(=O)c1ccccc1 | -17 | 8.3 | 0 | 3 | 4 | 2618 | -3
Cc1ccc(S(=O)(=O)N2CC(O)CC2C(=O)Nc2ccc3c(c2)CCC3)cc1 (stereo unspecified) | -4 | 6.8 | 3 | · | · | 5020 | -41
CCCC1NC(=S)N(C2CCCCC2)C1=O (stereo unspecified) | 3 | 3.1 | 30 | 4 | -2 | 2383 | -6
CCCNC(=O)c1nnsc1S(=O)c1ccc(Cl)cc1 (stereo unspecified) | -1 | 98* | 100* | 24 | 27 | 4856 | -28
CC(=O)c1ccc(N2CCN(S(=O)(=O)c3ccc4c5c3CC(=O)N5CC(C)S4)CC2)cc1 (stereo unspecified) | 3 | 1.9 | -6 | -7 | 5 | 5468 | -8
COc1ccccc1Oc1ccc(S(=O)(=O)N2CCOCC2)cc1S(=O)(=O)N1CCOCC1 | -1 | -15 | -8 | 15 | 16 | 3332 | -2
Cc1nc2ccccc2c(=O)n1/N=C/c1ccccc1Cl | -4 | · | · | · | · | 3809 | -39
O=C(O)c1cncc(Br)c1 | -12 | 2.6 | 5 | -2 | -4 | 2935 | 6
C=CCN1C(=O)CSC1=Nc1cccc(O)c1 | 0 | 4.7 | 1 | 10 | 9 | 13541 | -9
CCN(CC)S(=O)(=O)c1ccc(NC(=O)CO/N=C(\N)c2ccccc2)cc1 | -3 | 3.6 | 3 | 9 | 6 | 4762 | -7
COc1ccc(NS(=O)(=O)c2ccc(NC(=O)C3CCCO3)cc2)cc1 (stereo unspecified) | 1 | -5.7 | -3 | · | · | 3357 | -10
Cc1ccc(O)c(NC(=S)NC(=O)C(C)C)c1 | -4 | 4.8 | 8 | -13 | 2 | 4589 | -20
Cc1ccc(S(=O)(=O)N2CCCC2C(=O)OCc2ccccc2)cc1 (stereo unspecified) | 2 | 7.7 | 5 | 1 | 4 | 2157 | 0
COC(=O)/C(=C/c1c[nH]c2ccccc12)NC(C)=O | -7 | -0.1 | 12 | 8 | 4 | 2138 | -25

SMILES | BJeLR viability | RN4220 kill | ugtP null kill | Mtb hypoxia inh | Mtb hypoxia inh growth | Bead autofluor | PrP UTR inh
CN(C1(C)CCS(=O)(=O)C1)S(=O)(=O)c1cccc([N+](=O)[O-])c1 (stereo unspecified) | -2 | 2.0 | -1 | -9 | 8 | ? | -15
Cc1nc(NC(=O)c2ccc3c(c2)OCCO3)ccc1Br | -2 | 19 | 12 | -2 | -5 | 4272 | -61
c1cncc(CNCCc2ccc3c(c2)OCO3)c1 | 26 | 6.4 | 6 | 14 | 5 | 3057 | -23
O=C(NCc1cccnc1)/C(=C/c1ccco1)NC(=O)c1ccccc1 | 1 | -2.9 | -2 | 1 | -2 | 3135 | -19
CN(C(=O)c1ccc2c(c1)CCN2S(C)(=O)=O)c1ccccc1 | -2 | 1.8 | 5 | -8 | 3 | 4371 | -11
CC(C)c1ccc(C=c2sc3n(c2=O)C(N)=C(C#N)C(c2ccc(C(C)C)cc2)C=3C(N)=O)cc1 (stereo unspecified) | · | -1.4 | -1 | -6 | -8 | · | ·
CC(=O)Nc1ccc(S(=O)(=O)c2ccc(C)cc2)cc1 | 17 | 7.5 | 1 | -6 | 2 | 4534 | -21
COc1cc(C=NNc2ccc(C(=O)O)cc2)ccc1O | · | 2.8 | 10 | 1 | 0 | · | ·
S=c1[nH]nc(-c2ccccn2)n1/N=C/c1ccc(Br)s1 | -5 | · | · | · | · | 2495 | 11
CCNC(=O)c1ccccc1NC(=O)C1CC(=O)N(C(C)C)C1 (stereo unspecified) | 7 | 2.2 | 7 | -2 | 14 | 3297 | -53
O=C(O)c1ccccc1N(Cc1ccccc1)C(=O)COc1ccccc1 | 0 | 0.4 | -8 | 15 | 11 | 4238 | -2
Cc1ccccc1C(=O)Nc1ccc(-c2nc3ccc(C(=O)c4ccccc4)cc3[nH]2)cc1 | -7 | 24 | -7 | -4 | -19 | 2914 | -18
CC(=O)N1CCc2c(sc(NC(=O)C3COc4ccccc4O3)c2C(N)=O)C1 (stereo unspecified) | 4 | 7.6 | 2 | 3 | 0 | 6077 | -13
C=CCOc1c(Cl)cc(CNc2ccc3[nH]c(=O)[nH]c3c2)cc1OC | 1 | 4.8 | 5 | 7 | 0 | 2551 | 6
C=C1CCN([C@H](C(=O)NCc2cc(OC)c(OC)c(OC)c2)C(C)C)S(=O)(=O)c2ccccc21 | -7 | · | · | · | · | 4123 | -32
CN(c1ccccc1)S(=O)(=O)c1ccc(Cl)c(C(=O)OCC(=O)NCc2ccco2)c1 | -10 | 2.7 | 5 | 13 | 11 | 4360 | -15
Cc1nc2sc(C(c3ccc(C(C)C)cc3)N3CCN(CCO)CC3)c(O)n2n1 (stereo unspecified) | 11 | -4.8 | -5 | 0 | 8 | 6012 | -14
C=CCc1ccc(OCCCCN2CCC(C)CC2)c(OC)c1 | 11 | -4.8 | 4 | 1 | 3 | 2202 | -22
Cc1cc(C)c2[nH]c(O)c(N=Nc3ccc(C(=O)O)cc3)c2c1 | -15 | 90* | 85* | -3 | -7 | 4205 | -5
Cc1cc([N+](=O)[O-])ccc1NC(=O)c1cncc(Br)c1 | 5 | 4.9 | 0 | 8 | 5 | 2452 | -23

SMILES | BJeLR viability | RN4220 kill | ugtP null kill | Mtb hypoxia inh | Mtb hypoxia inh growth | Bead autofluor | PrP UTR inh
O=C(Cn1cccc1C(=O)c1ccccc1)NCc1ccccc1Cl | 2 | 1.1 | 4 | 1 | 13 | 4853 | -18
C=CCn1cnc2c(nnn2-c2ccc(C)c(Cl)c2)c1=O | -4 | 11 | 6 | 12 | -1 | 3229 | -14
COc1ccc(/C=C/C(=O)NC(=S)NNC(=O)c2cccs2)cc1 | -2 | · | · | · | · | 3884 | -11
O=C(COC(=O)CCc1nc2ccccc2s1)NCc1ccco1 | 16 | 7.3 | 7 | 18 | 14 | 3367 | -21
CC(=O)Nc1ccc(NC(=O)C2CCN(S(=O)(=O)c3ccc4c(c3)OCCO4)CC2)cc1 | · | -0.5 | 2 | -1 | 1 | 3767 | -16
COc1cccc(C2=CC(c3cccc(OC)c3OC(F)F)n3nnnc3N2)c1 (stereo unspecified) | -11 | -5.9 | 5 | -4 | -4 | 2770 | -19
CCOc1ccc(NC(=O)C[n+]2ccccc2)cc1 | 6 | 4.7 | 4 | 1 | 4 | 1997 | -12
O=C1c2ccccc2CN1CCSC(=S)N1CCSCC1 | 13 | 2.1 | 0 | 9 | 8 | · | ·
CS(=O)(=O)N(CC(=O)Nc1ccccc1-c1ccccc1)c1ccc(F)cc1 | 7 | 2.9 | 10 | -3 | 3 | 4367 | -18
COc1cccc(C(C(=O)NC(C)(C)C)N(Cc2ccco2)C(=O)CCC(=O)Nc2cc(C)on2)c1OC (stereo unspecified) | -18 | 1.2 | 2 | 3 | -10 | 4638 | -15
CCOC(=O)c1c(S(=O)(=O)NCC(=O)Nc2cc(C)ccc2C)c(C)n(C)c1C | 1 | 4.5 | 10 | -1 | 0 | 4378 | -13
CC(=O)Nc1ccc(CNc2ncnc3ccc(-c4c(C)noc4C)cc23)cc1 | · | 6.2 | -9 | 6 | 10 | 4162 | -11
CC(C)Oc1ccc(CNCC2(O)CCOC(C)(C)C2)cc1 (stereo unspecified) | -1 | 3.6 | 1 | 3 | 7 | 3215 | -8
COc1ccc(C(=O)N2CCC(C(=O)Nc3ccc(C)cc3)CC2)cc1 | 4 | 2.7 | 7 | 13 | 13 | 4876 | 1
COC(=O)c1ccc(C2=NOC(C)(c3nnc(Cc4ccccc4)o3)C2)cc1 (stereo unspecified) | -4 | -2.2 | -4 | 4 | 3 | 3443 | 1

Full records, quoted from the list. Order of screens: BJeLR viability	RN4220 kill	ugtP null kill	Mtb hypoxia inh	Mtb hypoxia inh growth	Bead autofluor	PrP UTR inh
`CC(C)Oc1ccc(CNCC2(O)CCOC(C)(C)C2)cc1` (stereo unspecified) as listed: -1	3.6	1	3	7	3215	-8
`COc1cccc(C(C(=O)NC(C)(C)C)N(Cc2ccco2)C(=O)CCC(=O)Nc2cc(C)on2)c1OC` (stereo unspecified) as listed: -18	1.2	2	3	-10	4638	-15
`CS(=O)(=O)N(CC(=O)Nc1ccccc1-c1ccccc1)c1ccc(F)cc1` as listed: 7	2.9	10	-3	3	4367	-18

From PubChem
